# GLA inh pH 4.5 – alpha-galactosidase A (human) inhibition, pH 4.5; P06280; purified enzyme, 4-MU-alpha-Gal fluorescence, pH 4.5; activity change, negative = inhibition, % at 105 µM; 230,000 tested, under 10 active; AID 1467; inconclusive = small, poorly fitted or top-dose-only inhibition, or a rising curve; inactive = flat fitted curve, though single readings scatter; no compound was filed as active;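 further: 0% = full activity with enzyme and -100% = basal without enzyme; dose as in the result columns while the protocol names 77 µM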
# Rango-impB inh – prevents formation of the Rango-importin beta complex | Rango CFP/YFP FRET sensor + importin beta, 45 min | Potency, µM (doses to about 92.2 µM), inactives show top-dose inhibition of complex formation | actives 0.031% (n = 340,000); active = rising FRET ratio curve, often small or poorly fitted; inconclusive = mostly compound fluorescence or quenching in the first reads; inactive = flat curves in all reads;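 further: potency means the concentration at half of the fitted maximal effect; 0% = DMSO wells and 100% = buffer wells lacking importin beta; nearly all actives have a fitted effect of over 15% in size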
# Target sequence (Q14974 whole entry, looked up): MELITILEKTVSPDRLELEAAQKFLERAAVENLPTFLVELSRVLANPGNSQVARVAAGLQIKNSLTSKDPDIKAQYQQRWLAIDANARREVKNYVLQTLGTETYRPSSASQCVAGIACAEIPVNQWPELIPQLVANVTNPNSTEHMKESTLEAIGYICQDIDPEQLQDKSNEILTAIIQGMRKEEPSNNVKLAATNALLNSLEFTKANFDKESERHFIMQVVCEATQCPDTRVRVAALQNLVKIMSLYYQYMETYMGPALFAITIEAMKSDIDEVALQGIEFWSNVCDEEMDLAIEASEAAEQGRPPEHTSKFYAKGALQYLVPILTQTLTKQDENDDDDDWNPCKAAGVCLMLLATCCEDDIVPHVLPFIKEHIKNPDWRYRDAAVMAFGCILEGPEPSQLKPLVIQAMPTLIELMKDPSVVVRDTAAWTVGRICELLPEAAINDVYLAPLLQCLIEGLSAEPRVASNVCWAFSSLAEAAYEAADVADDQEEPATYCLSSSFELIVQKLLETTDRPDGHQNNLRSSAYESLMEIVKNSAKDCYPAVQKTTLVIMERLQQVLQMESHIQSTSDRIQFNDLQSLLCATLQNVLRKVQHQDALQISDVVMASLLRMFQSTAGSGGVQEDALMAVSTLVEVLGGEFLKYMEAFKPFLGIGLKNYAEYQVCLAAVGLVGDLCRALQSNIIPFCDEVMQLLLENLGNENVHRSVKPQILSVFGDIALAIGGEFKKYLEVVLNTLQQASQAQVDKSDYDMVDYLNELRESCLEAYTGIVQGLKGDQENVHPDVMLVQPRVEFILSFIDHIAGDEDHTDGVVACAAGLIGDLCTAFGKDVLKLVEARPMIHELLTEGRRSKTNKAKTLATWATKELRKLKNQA
#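 FRET biosensor Rango (snurportin 1 IBB between N-terminal EYFP and C-terminal Cerulean), 50 nM in PBS/1 mM DTT/0.02% Tween-20/0.1% BSA, preincubated 5 min RT with compound; 0.125 microM importin beta added, 45 min RT, CFP/YFP FRET ratio read.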
# Rango release inh – inhibition of RanGTP-driven Rango-importin beta dissociation | actives 0.071% (n = 340,000) | Potency, µM (top dose mostly 46.1 µM), without a hit: at the top dose activity change, negative = inhibition | Biochemical FRET Rango-importin beta, RanGTP-induced dissociation | AID 540253 | O95149+P62826; active means falling FRET ratio curve, often poorly fitted, with flat reads before Ran was added; inconclusive means other falling curves, or compound fluorescence or quenching; inactive means flat or rising ratio curve;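 further: potency means the concentration at half of the fitted maximal effect; % of control where 0% means no effect; nearly all actives have a fitted effect of over 45% in size; -100% = wells without RanGTP and RCC1; the record marks most hits as doubtful in a second field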
#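 Rango/importin beta premix (0.1/0.25 uM final), PBS + 1 mM DTT + 0.02% Tween-20 + 0.1% BSA; cpd 5 min RT; FRET pre-read; + RanGTP-RCC1 (0.6 uM Ran, 2 mM GTP, 0.2 uM RCC1); 45 min RT; FRET post-read, ex 430, em 486/530 nm.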
# miR-21 FLuc – raises the signal of a miR-21 reporter | HeLa miR-21 FLuc reporter, luciferase, 48 h | Potency, µM (highest dose often 38.3 µM), inactives show at the top dose reporter change, positive = more light | 340,000 tested, under 10 active | AID 2288; active = well fitted rising curve with a large enough effect; inconclusive = small, poorly fitted or top-dose-only effect; inactive = no such curve, though single readings can be large or run the other way;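 further: % of control where 0% means no effect; miR-21 action dims this reporter so a rising signal means less miR-21 action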
#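 HeLa cells stably expressing CMV-driven firefly luciferase with a downstream miR-21 binding sequence, endogenously expressing miR-21, were treated with titrations (up to about 40uM final) for 48 hours at 37 degree Celsius. Luciferase luminescence was read after lysis.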
# The depositor's hits bear a star; ? = inconclusive; . = no result given. An excerpt. The share of hits here may be higher or lower than overall.
SMILES,GLA inh pH 4.5,Rango-impB inh,Rango release inh,miR-21 FLuc
CC(=O)c1ccc(Nc2cnn(C34CC5CC(CC(CC(=O)O)(C5)C3)C4)c(=O)c2Cl)cc1,-3,-0.1%,6%,-1%
CCC(C)[C@H](NC(=O)NCc1ccc(OC)c(OC)c1)C(=O)O (stereo not given in full),-2,-0.7%,9%,1%
CN(C)/C=C/C(=O)c1ccc(S(=O)(=O)c2ccccc2)cc1,1,-4.8%,-15%,2%
CCOC(=O)CNC(=O)Cc1ccc(OC)cc1,4,1.6%,-8%,0%
CC(C)C(c1nnnn1CC1CCCO1)N1CCN(Cc2ccc3c(c2)OCO3)CC1 (stereo not given),-8,1.8%,2%,-5%
Cc1csc(N(C(=O)Cc2ccccc2F)c2ccccc2)n1,-4,-0.5%,-17%,-7%
CCOc1cccc(NC(=O)/C(C#N)=C\c2cn(CC(=O)O)c3ccccc23)c1,.,?,?,7%
Cc1ccc(CNC(=O)C(=O)NCC2OCCN2S(=O)(=O)c2ccc(Br)cc2)cc1 (stereo not given),.,-2.7%,0%,15%
O=C(Cc1ccccc1[N+](=O)[O-])Nc1ccccc1C(=O)N1CCOCC1,-28,2.5%,-4%,6%
COc1ccc(-c2cc(C(=O)NCC(C)C)no2)cc1,4,-0.5%,1%,-53%
COc1cc2c(cc1OC)C(c1ccccc1Br)NC(=O)C2 (stereo not given),.,3.2%,-21%,-7%
O=C(C[n+]1cn(C(F)F)c2ccccc21)c1ccc(OC(F)F)cc1,3,2.4%,-7%,-62%
CCN(CC(=O)NCc1cccs1)CC(=O)Nc1cccc(S(N)(=O)=O)c1,.,-1.8%,1%,.
COc1cc(C2C(C(C)=O)=C(O)C(=O)N2c2ccc(C)cc2)ccc1O (stereo not given),0,?,?,-1%
Cc1ccc(CONS(=O)(=O)c2cc(C)ccc2C)cc1,.,0.1%,2%,.
CCOC(=O)c1c(C)nc2c(C#N)cnn2c1C,-1,0.2%,?,-5%
Cc1cccc(N(CC(O)CON=C2c3ccccc3-c3ccccc32)S(C)(=O)=O)c1 (stereo not given),-9,0.0%,5%,21%
COc1ccc(C(C(=O)NCC2CCCO2)N(C(=O)Cn2nnc3ccccc32)c2ccc(NC(C)=O)cc2)c(OC)c1 (stereo not given),.,-5.4%,-14%,-1%
Cc1ccc(C(=O)C2=C(O)C(=O)N(Cc3cccnc3)C2c2ccc(N(C)C)cc2)o1 (stereo not given),.,-2.2%,-12%,3%
CC1(C)Cc2c(cnn2-c2ccc(F)cc2)C(NC(=O)C(C)(C)O)C1 (stereo not given),.,-4.0%,48%,-3%
COC(=O)CSc1nnc(C2COc3ccccc3O2)n1-c1ccccc1 (stereo not given),7,-5.4%,6%,-4%
COc1ccc(OCc2n[nH]c(=S)o2)cc1,-1,?,-1%,-13%
CCCCn1c(N)c(N(CC(C)C)C(=O)c2cc(S(=O)(=O)N3CCCCC3)ccc2C)c(=O)[nH]c1=O,.,0.2%,-10%,.
CC(=O)c1cnc2c(-c3cccc(Br)c3)cnn2c1C,-9,-1.0%,-3%,-52%
Cc1nc(N)ncc1C(=O)Nc1ccccc1,1,-1.1%,-6%,0%
SMILES,GLA inh pH 4.5,Rango-impB inh,Rango release inh,miR-21 FLuc
O=C(CNC(=S)N(CCCN1CCOCC1)Cc1cccs1)NC1CCCCCCC1,-4,0.1%,37%,-19%
CC1CCC2(CC1)NC(=O)N(CC(=O)Nc1ccc3c(c1)OCCO3)C2=O (stereo not given),-3,1.0%,11%,-55%
COc1ccc(C(c2nnnn2C2CCCC2)N2CCC(C)CC2)cc1 (stereo not given),-6,0.4%,-1%,-17%
O=C(O)CCC(=O)N1CCN(S(=O)(=O)c2ccc3ccccc3c2)CC1,.,-4.1%,7%,1%
COc1ccccc1C(=O)NC(CCSC)C(=O)N1CCC(Cc2ccccc2)CC1 (stereo not given),.,1.7%,-16%,.
CCC(C)NC(=O)C1CCC(CNS(=O)(=O)c2ccccc2)CC1 (stereo not given),.,-5.7%,2%,2%
Cc1ccc(-c2nnc(Cc3ccc(Cl)cc3)o2)cc1,-4,-8.5%,-2%,-60%
Cc1ccc(N2CCN(S(=O)(=O)N(C)C)CC2)cc1C,12,-0.7%,4%,0%
CC(NCC(=O)Nc1ccccc1C(=O)NC1CC1)c1ccccc1Cl (stereo not given),.,-2.5%,-9%,.
CCOc1ccc(-c2c(=O)n(OCc3ccc([N+](=O)[O-])cc3)c3ccccc3[n+]2[O-])cc1,-17,.,.,-25%
Cc1cc(C)cc(OCC(=O)N2CCCCCC2)c1,-1,?,14%,-11%
Cn1c(OCc2cccnc2)nc2c1c(=O)n(Cc1ccc(F)cc1)c(=O)n2C,-1,-2.5%,15%,2%
Cc1ccc(C(=O)N2CCN(c3cc4c(cc3[N+](=O)[O-])n(C)c(=O)n4C)CC2)cc1,-3,0.1%,-8%,0%
COc1cc(CN2CCCC(C(=O)c3ccc(C(C)(C)C)cc3)C2)cc(OC)c1O (stereo not given),.,-0.1%,-12%,9%
CC(=O)c1ccc(N2CCN(C(=S)Nc3cc(C)ccc3C)CC2)cc1,-2,-1.0%,-9%,-15%
CC1CC(C)CN(S(=O)(=O)c2ccc(Oc3ccc([N+](=O)[O-])cc3)cc2)C1 (stereo not given),-8,2.3%,-7%,-5%
CCNC(=O)N(CCOC)CC1CCCN(C2Cc3ccccc3C2)C1 (stereo not given),.,2.0%,-13%,-4%
Cc1nc2ccccc2c(=O)n1NC(=O)c1ccc([N+](=O)[O-])cc1,-4,0.2%,-18%,2%
O=C(COC(=O)/C=C/c1cccc(F)c1)NC1CCCCCC1,.,-1.9%,-16%,.
Cc1ccc(NC(=O)/C(Cl)=C/c2ccccc2)cc1C,-1,-4.6%,-2%,-54%
O=C(NCc1cccc(OC(F)(F)F)c1)c1cccc2c1C(=O)c1ccc(-c3ccc(F)cc3OCc3ccccc3)cc1S2(=O)=O,.,?,?,.
CCc1ccc(NC(=S)Nc2ccc3cn[nH]c3c2)cc1,2,2.5%,4%,-41%
O=C(Nc1ccccc1)c1cc(S(=O)(=O)N2CCOCC2)cs1,-3,1.3%,0%,3%
COc1ccc(C(=O)N2CCCC(c3nc(-c4ccc(C)o4)no3)C2)cc1OC (stereo not given),.,-5.7%,3%,-7%
COCCN(C(=O)CCc1ccc(OC)cc1)c1nnc(-c2ccncc2)s1,-1,3.4%,-14%,-8%
SMILES,GLA inh pH 4.5,Rango-impB inh,Rango release inh,miR-21 FLuc
CCOC(=O)C1=C(C)N=c2s/c(=C\c3ccc(OCC(=O)O)c(OC)c3)c(=O)n2C1c1ccc(OC)cc1 (stereo not given),.,?,?,-7%
C=CCn1nnc2sc3c(c2c1=O)CCC(C)C3 (stereo not given),-10,-3.1%,-10%,-32%
COc1ccc(C(C(=O)NC2CCCC2)N(C(=O)c2ccco2)c2cc3c(cc2C(C)=O)OCO3)cc1 (stereo not given),.,-0.9%,2%,-1%
CCOc1c(C)cc2[nH]c(CCC(=O)O)nc2c1C,-3,2.5%,1%,-20%
Cc1ccc(N(CCC#N)C(=O)COC(=O)C2CCN(c3ccc(C(F)(F)F)cn3)CC2)cc1,.,-0.4%,3%,.
Clc1ccc(-c2nnnn2-c2ccc(Cl)c(Cl)c2)cc1Cl,2,1.2%,7%,-8%
COc1ccc(CCNC(=O)C2=CC=CN3CCS(=O)(=O)N=C23)cc1,.,0.8%,-12%,.
O=C(/C=C/c1cccs1)NCc1cccnc1,-4,-0.1%,7%,-6%
CC(C)C(c1nnnn1Cc1ccc(F)cc1)N1CCN(Cc2ccc3c(c2)OCO3)CC1 (stereo not given),-1,4.5%,-1%,6%
CCN(C(=O)CN1CCN(c2ccccc2F)CC1)c1c(N)n(Cc2ccccc2)c(=O)[nH]c1=O,7,-1.3%,0%,-3%
CCC1CCC2(CC1)NC(=O)N(CC(=O)Nc1ccc(OC)cc1)C2=O (stereo not given),.,6.3%,4%,.
O=C(Oc1ccc(Cl)c2cccnc12)N1CCCCC1,-6,-3.3%,-2%,-33%
Cc1ccc(OCCNC(=O)C(=O)NCc2ccco2)cc1,8,-3.3%,0%,14%
CC(C)(C)NC(=O)c1ccc2c(c1)CCO2,2,3.2%,-3%,1%
Cc1ccc(S(=O)(=O)N2CCOCC(=O)NCCOCCNC(=O)COCC2)cc1,7,-0.4%,14%,-1%
O=Cc1cc(Cl)ccc1OCCN1CCC(Cc2ccccc2)CC1,.,2.2%,18%,5%
Cc1ccc(-n2c(C)cc(C(=O)OCC(=O)N(C)C3CCS(=O)(=O)C3)c2C)cc1 (stereo not given),6,4.1%,7%,-14%
CCOC(=O)C1CCN(c2ccc([N+](=O)[O-])c(C(C)=O)c2)CC1,-6,?,14%,4%
CCSc1nnc(NC(=O)CCNC(=O)c2ccccc2Cl)s1,.,-0.1%,-19%,.
Cc1onc(-c2ccccc2)c1C(N)=O,9,1.4%,?,-6%
COc1cc(-c2noc(CCCC(=O)Nc3ccc(C(N)=O)cc3)n2)cc(OC)c1OC,-8,0.3%,-10%,17%
O=C(CCC(=O)N1CCN(S(=O)(=O)c2ccc(Cl)cc2)CC1)NC1CCCc2ccccc21 (stereo not given),-10,-0.5%,22%,12%
O=C(NCCN1C(=O)C2C3C=CC(C3)C2C1=O)Nc1ccccc1O (stereo not given),-1,3.0%,4%,-19%
CN(Cc1c(F)cccc1Cl)C(=O)c1ccc(COc2ccccc2)cc1,.,0.6%,18%,-7%
O=C(COc1ccc(S(=O)(=O)N2CCc3ccccc32)cc1Cl)NCc1ccccn1,-5,-4.5%,-13%,0%

# Some of the entries above, reformatted:
structure	GLA inh pH 4.5	Rango-impB inh	Rango release inh	miR-21 FLuc
Cc1ccc(-n2c(C)cc(C(=O)OCC(=O)N(C)C3CCS(=O)(=O)C3)c2C)cc1 (stereo not given)	6	4.1%	7%	-14%
CCOC(=O)C1CCN(c2ccc([N+](=O)[O-])c(C(C)=O)c2)CC1	-6	?	14%	4%
CCSc1nnc(NC(=O)CCNC(=O)c2ccccc2Cl)s1	.	-0.1%	-19%	.
Cc1onc(-c2ccccc2)c1C(N)=O	9	1.4%	?	-6%
COc1cc(-c2noc(CCCC(=O)Nc3ccc(C(N)=O)cc3)n2)cc(OC)c1OC	-8	0.3%	-10%	17%

# The list goes on.
SMILES,GLA inh pH 4.5,Rango-impB inh,Rango release inh,miR-21 FLuc
O=C(COC(=O)c1ccc[nH]c1=O)NC1CCCCC1,-2,-0.7%,-19%,-1%
CC(C)N(Cc1ccccc1)C(=S)NC(=O)C1(C)CC1(Cl)Cl (stereo not given),-5,2.4%,-4%,0%
COc1ccc(CNC(=O)C(OC(C)=O)c2ccccn2)cc1 (stereo not given),8,-0.9%,-3%,-13%
CC(C)Nc1nnc(SC(C)C(=O)Nc2ccc(N3CCOCC3)cc2)s1 (stereo not given),.,1.9%,-3%,.
COc1ccc(-n2nnc3c(=O)n(C/C=C/c4ccccc4)cnc32)cc1,5,8.5%,2%,-1%
CN1CCN(S(=O)(=O)c2ccc(NC(=O)C3CCCO3)cc2)CC1 (stereo not given),-33,-0.1%,-23%,1%
CC(=O)N1CCN(c2ccc(NCc3ccc(C)s3)cc2)CC1,2,-1.8%,1%,-5%
CCc1ccc(/C=N/NC(=O)Cc2cccn2C)cc1,2,-3.2%,24%,-50%
O=C(OCCO)c1cc(Cl)c(C(=O)OCCO)cc1Cl,-3,1.5%,0%,-7%
COc1ccc2c(c1)CC[C@@H]1[C@@H]2CC[C@]2(C)[C@@H](C(=O)O)C[C@@H]12,.,0.2%,4%,.
Cc1ccc(C)c(NC(=O)C(OC(=O)c2ccc(C)s2)c2ccccc2)c1 (stereo not given),6,0.3%,-1%,-5%

# Structures listed so far that have a CF3 group:
SMILES,GLA inh pH 4.5,Rango-impB inh,Rango release inh,miR-21 FLuc
O=C(NCc1cccc(OC(F)(F)F)c1)c1cccc2c1C(=O)c1ccc(-c3ccc(F)cc3OCc3ccccc3)cc1S2(=O)=O,.,?,?,.
Cc1ccc(N(CCC#N)C(=O)COC(=O)C2CCN(c3ccc(C(F)(F)F)cn3)CC2)cc1,.,-0.4%,3%,.

# Screening data as filed in PubChem BioAssay.
